ID4 binder – binders of human ID4 protein, primary screen, biochemical, small molecule microarray, single point. Flag-ID4 binding, fluorescence F/B. calls only. DNA-binding protein inhibitor ID-4 (Homo sapiens), P47928. 31,000 tested, 1.2% active;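 active = spot signal over background at p below 0.07 in all four prints; compounds were printed on slides so no solution concentration is given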;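 also: a binder raises fluorescence above local background on the spot; about 2 pmol printed per array spot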
Target sequence (P47928 whole entry, looked up): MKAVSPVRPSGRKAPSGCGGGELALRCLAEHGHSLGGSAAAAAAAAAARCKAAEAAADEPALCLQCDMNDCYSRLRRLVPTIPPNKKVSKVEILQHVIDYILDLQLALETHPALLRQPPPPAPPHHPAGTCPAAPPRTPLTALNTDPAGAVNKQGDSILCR
p53 mut binder – binders of human mutant p53, primary screen, biochemical, small molecule microarray, anti-GST fluorescence; AID 624136, 2012; calls only; small molecule microarray binding; 17,000 tested, 0.4% active; mutant tumor protein p53 (GST-tagged), Homo sapiens;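 active = compounds whose four printed spots each glow above background more than chance allows, each with a p-value under 7%; compounds were printed on slides so no solution concentration is given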;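 also: about 2 pmol printed per array spot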
c-Myc SMM – binders of human c-Myc, primary screen, biochemical, small molecule microarray, anti-His fluorescence | Myc proto-oncogene protein (Homo sapiens), P01106 | His-c-Myc binding | calls only | 17,000 tested, 1.5% active;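 active = spot fluorescence over background with P-value below 7% in all four replicate spots, showing protein binding; compounds were printed on slides so no solution concentration is given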;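 also: score is binary with 100 for all four spots passing and 0 otherwise; about 2 pmol printed per array spot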
STAT3 binder – STAT3 binders, primary screen, biochemical, small molecule microarray, single point, set 2 | Signal transducer and activator of transcription 3 (Homo sapiens), P40763 | His-STAT3 binding, anti-His fluorescence | calls only | 17,000 tested, 0.2% active;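 active = compounds whose four printed spots each show fluorescence over background unusually high for their array block, chance value under 7%; compounds were printed on slides so no solution concentration is given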;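 also: about 2 pmol printed per array spot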
Target sequence (P40763 whole entry, looked up): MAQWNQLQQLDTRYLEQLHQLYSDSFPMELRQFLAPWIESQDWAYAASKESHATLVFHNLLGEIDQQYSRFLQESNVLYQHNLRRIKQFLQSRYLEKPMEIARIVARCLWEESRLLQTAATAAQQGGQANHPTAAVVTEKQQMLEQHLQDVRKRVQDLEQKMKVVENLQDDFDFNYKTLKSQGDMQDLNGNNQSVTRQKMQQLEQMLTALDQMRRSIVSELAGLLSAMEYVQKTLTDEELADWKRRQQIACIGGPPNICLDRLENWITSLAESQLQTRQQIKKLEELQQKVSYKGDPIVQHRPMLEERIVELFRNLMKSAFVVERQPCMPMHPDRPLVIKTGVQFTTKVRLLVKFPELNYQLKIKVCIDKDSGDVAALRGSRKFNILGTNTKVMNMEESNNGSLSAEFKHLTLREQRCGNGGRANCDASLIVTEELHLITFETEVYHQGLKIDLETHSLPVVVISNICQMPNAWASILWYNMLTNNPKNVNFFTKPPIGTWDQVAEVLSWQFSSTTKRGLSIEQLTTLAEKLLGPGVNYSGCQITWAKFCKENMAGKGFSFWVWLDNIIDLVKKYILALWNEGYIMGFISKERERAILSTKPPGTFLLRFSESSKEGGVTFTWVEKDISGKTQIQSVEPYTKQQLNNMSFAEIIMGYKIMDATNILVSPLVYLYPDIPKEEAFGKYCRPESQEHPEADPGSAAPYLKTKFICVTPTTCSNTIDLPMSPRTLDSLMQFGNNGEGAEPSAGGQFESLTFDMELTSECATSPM
Calls only; i = inactive; / = not tested or not shown; + = active, no number. This is a subset (hit frequency here may not be typical).

Second line of a record – ID4 binder | p53 mut binder | c-Myc SMM | STAT3 binder
- O=C1NC(=O)c2cc(Nc3ccc(F)cc3)c(Nc3ccc(F)cc3)cc21
    i | + | i | i
- COc1ccccc1NC(=O)c1ccc(NC(=O)C2COc3ccccc3O2)cc1 (stereo not drawn)
    i | i | i | i
- C[C@@H]1CN([C@H](C)CO)C(=O)c2cccc(NS(C)(=O)=O)c2O[C@@H]1CN(C)C(=O)NC1CCCCC1
    i | i | i | i
- C[C@@H]1CN([C@H](C)CO)C(=O)Cc2cc(NS(=O)(=O)c3cccs3)ccc2O[C@H]1CN(C)CC1CC1
    i | i | i | i
- Cc1noc(C)c1NC(=O)N(C)C[C@@H]1Oc2ccc(NC(=O)C3CC3)cc2C(=O)N([C@@H](C)CO)C[C@@H]1C
    i | i | i | i
- CC(C)NC(=O)Nc1ccc2c(c1)C(=O)N([C@H](C)CO)C[C@H](C)[C@H](CN(C)S(=O)(=O)c1cccs1)OCCCC[C@H](C)O2
    i | i | i | i
- C[C@H]1CN([C@@H](C)CO)C(=O)Cc2cc(NC(=O)Nc3ccccc3)ccc2O[C@@H]1CN(C)Cc1ccc(C(=O)O)cc1
    i | i | i | i
- CNC[C@H]1Oc2c(NC(=O)C3CCOCC3)cccc2C(=O)N([C@H](C)CO)C[C@H]1C
    i | i | i | i
- Cc1ccccc1NC(=O)CSc1n[nH]c(-c2ccncc2)n1
    i | i | i | i
- C[C@@H]1CN([C@@H](C)CO)C(=O)c2cc(NS(C)(=O)=O)ccc2O[C@@H](C)CCCCO[C@H]1CN(C)Cc1ccncc1
    i | i | i | i
- C[C@@H]1CN([C@@H](C)CO)C(=O)c2cc(NC(=O)NC3CCCCC3)ccc2O[C@@H]1CN(C)C
    i | i | i | i
- C[C@@H]1CN([C@@H](C)CO)C(=O)c2cccc(NS(C)(=O)=O)c2O[C@@H]1CN(C)Cc1ccc(Oc2ccccc2)cc1
    i | i | i | i
- C[C@H](CO)N1C[C@H](C)[C@@H](CN(C)C(=O)Nc2ccc(C(F)(F)F)cc2)Oc2ccc(NC(=O)C3CC3)cc2C1=O
    i | i | i | i
- Cc1ccc(-c2csc3ncnc(SCC(=O)c4ccc5c(c4)OCCO5)c23)cc1
    i | i | i | i
- COc1ccc(COCC23N=C4SCC(=O)N4[C@H](c4ccccc4O2)[C@H]3COC(=O)c2ccccc2)cc1
    i | i | i | i
- Cc1ccc(NC(=O)CSc2nc(N)cc(=O)[nH]2)cc1Cl
    i | i | i | i
- Cc1cc(COc2ccccc2OCc2cc(C)no2)on1
    i | i | i | i
- COc1cc(C2OCC3C(c4cc(OC)c(OC)c(OC)c4)OCC23)cc(OC)c1OC (stereo not drawn)
    i | i | i | i
- COc1ccc([C@@]2(O)c3c(ccc(CC=C(C)C)c3O)NC(=O)[C@@H]2OC)cc1
    i | i | i | i
- C[C@@H]1CCCCO[C@H](CN(C)C(=O)Cc2ccccc2)[C@H](C)CN([C@@H](C)CO)C(=O)c2cc(NC(=O)c3ccncc3)ccc2O1
    i | i | i | i
- COc1ccc(C)cc1NC(=O)CCN1CCN(Cc2ccccc2)CC1
    i | i | i | i
- C[C@@H]1O[C@@H](OC[C@H]2O[C@@H](Oc3c(-c4ccc(O)c(O)c4)oc4cc(O)cc(O)c4c3=O)[C@H](O)[C@@H](O)[C@@H]2O)[C@H](O)[C@H](O)[C@H]1O
    / | i | i | i
- CC1(C)CC[C@@]2(C(=O)O[C@@H]3O[C@H](CO)[C@@H](O)[C@H](O)[C@H]3O)C(C1)C1=CCC3[C@@]4(C)CC[C@@H](O[C@@H]5O[C@H](C(=O)O)[C@@H](O[C@@H]6OC[C@@H](O)[C@H](O)[C@H]6O)[C@H](O[C@@H]6OC[C@](O)(CO)[C@H]6O)[C@H]5O)C(C)(C)C4CC[C@@]3(C)[C@]1(C)C[C@H]2O (stereo partly drawn)
    / | i | i | i
- COc1cc(/C=C(/C#N)C(N)=O)cc(CSc2nc3ccccc3s2)c1O
    i | i | i | i
- C[C@H](CO)N1C[C@H](C)[C@H](CN(C)Cc2ccncc2)Oc2ccc(NC(=O)Cc3ccccc3)cc2CC1=O
    i | i | i | i
- C[C@@H]1CCCCO[C@@H](CN(C)C)[C@H](C)CN([C@H](C)CO)C(=O)c2cc(NC(=O)Nc3ccccc3)ccc2O1
    i | i | i | i
- C[C@@H]1CN([C@@H](C)CO)C(=O)Cc2cc(NS(=O)(=O)c3cn(C)cn3)ccc2O[C@H]1CN(C)C(=O)Nc1ccc(F)cc1
    / | i | i | i
- COc1ccc(S(=O)(=O)N(C)C[C@H]2OCCCC[C@@H](C)Oc3ccc(N(C)C)cc3C(=O)N([C@@H](C)CO)C[C@@H]2C)cc1
    / | i | i | i
- C[C@H](CO)N1C[C@H](C)[C@H](CN(C)S(=O)(=O)c2ccccc2)OCc2cn(nn2)CCCC1=O
    i | i | i | i
- C[C@H](CO)N1C[C@H](C)[C@@H](CN(C)S(=O)(=O)c2ccc(F)cc2)Oc2ccc(NS(=O)(=O)c3ccccc3)cc2C1=O
    / | i | i | i
- CCO[C@H]1OC(C(=O)NCc2ccccc2)=C[C@@H](c2cn(C(C)=O)c3ccccc23)[C@@H]1CCCO
    i | i | i | i
- C[C@@H]1CCCCO[C@H](CN(C)Cc2ccccc2)[C@H](C)CN([C@@H](C)CO)C(=O)c2cc(N(C)C)ccc2O1
    i | i | i | i
- Cc1noc(C)c1S(=O)(=O)Nc1ccc2c(c1)CC(=O)N([C@@H](C)CO)C[C@H](C)[C@H](CN(C)C(=O)NC(C)C)O2
    i | i | i | i
- COc1ccc(Nc2nc(N)nc(COc3ccc(OC)cc3)n2)cc1
    i | i | i | i
- Cc1noc(C)c1S(=O)(=O)N(C)C[C@@H]1OCCCC[C@@H](C)Oc2ccc(NC(=O)CCCN(C)C)cc2C(=O)N([C@H](C)CO)C[C@H]1C
    i | i | i | i
- C[C@@H]1CN([C@@H](C)CO)C(=O)c2cc(NC(=O)CCC(F)(F)F)ccc2O[C@@H](C)CCCCO[C@H]1CN(C)C(=O)c1ccncc1
    i | i | i | i
- Cc1c(C(N)=O)sc2ncn(CC(=O)Nc3cc(Cl)ccc3Cl)c(=O)c12
    i | i | i | i
- O=C1Oc2cc(O)cc(O)c2[C@@H](c2ccc(O)cc2)[C@H]1[C@H]1C(=O)Oc2cc(O)cc(O)c2[C@H]1c1ccc(O)cc1
    / | i | i | i
- O=C1O[C@H](c2ccccc2)[C@H](c2ccccc2)N2[C@H]1[C@@H](C(=O)N1CCN(c3ncccn3)CC1)[C@]1(C(=O)Nc3ccc(C#CC4=CCCCC4)cc31)[C@H]2c1ccc(OCCO)cc1
    i | i | i | i
- CC1CCC2C(C)(C)[C@@H](O)CC[C@]2(C)C12Cc1c(O)cc3c(c1O2)CN(C(CCC(=O)O)C(=O)O)C3=O (stereo partly drawn)
    i | i | i | i
- C[C@H]1CN([C@@H](C)CO)C(=O)c2cccc(NS(C)(=O)=O)c2O[C@H]1CN(C)C(=O)NC1CCCCC1
    i | i | i | i
- CC(C)NC(=O)Nc1ccc2c(c1)C(=O)N([C@@H](C)CO)C[C@@H](C)[C@H](CN(C)S(C)(=O)=O)OCCCC[C@@H](C)O2
    / | i | i | i
- C[C@@H]1CN([C@@H](C)CO)C(=O)c2cc(NS(=O)(=O)c3cn(C)cn3)ccc2O[C@H]1CN(C)S(=O)(=O)c1cn(C)cn1
    i | i | i | i
- CNC[C@H]1Oc2ccc(NS(=O)(=O)c3c(C)noc3C)cc2CC(=O)N([C@@H](C)CO)C[C@@H]1C
    / | i | i | i
- C[C@@H]1CN([C@H](C)CO)C(=O)c2cccc(NS(=O)(=O)c3ccccc3)c2O[C@@H]1CN(C)Cc1ccncc1
    / | i | i | i
- COc1ccc(OC(C)C(=O)Nc2cc([N+](=O)[O-])ccc2C)cc1 (stereo not drawn)
    i | i | i | i
- COc1ccc(CN(C)C[C@@H]2Oc3c(NC(=O)Nc4cccc5ccccc45)cccc3C(=O)N([C@H](C)CO)C[C@@H]2C)cc1
    i | i | i | i
- C[C@@H]1CN([C@@H](C)CO)C(=O)Cc2cc(NC(=O)CCN3CCOCC3)ccc2O[C@H]1CN(C)C
    i | i | i | i
- C[C@@H]1C[C@@H](O)C2[C@@](C)(CO)CCC[C@]2(C)[C@@]1(O)CCc1ccoc1 (stereo partly drawn)
    i | i | i | i
- CCOC(=O)c1sc(NC(=O)C(C)(C)Oc2ccc(Cl)cc2)c(C#N)c1C
    i | i | i | i
- Cc1cc(I)cnc1NC(=O)COc1ccc([N+](=O)[O-])cc1
    i | i | i | i
- CC(=O)Nc1ccc(S(=O)(=O)Nc2c(C)nn(-c3ccccc3)c2C)cc1
    i | i | i | i
- C[C@H]1CN([C@@H](C)CO)C(=O)Cc2cc(NS(=O)(=O)c3ccccc3)ccc2O[C@H]1CN(C)Cc1ccc2c(c1)OCO2
    i | i | i | i
- C[C@@H]1CCCCO[C@H](CN(C)C)[C@H](C)CN([C@H](C)CO)C(=O)c2cc(NS(=O)(=O)c3cn(C)cn3)ccc2O1
    i | i | i | i
- Cc1ccc(NC(=O)CN(c2cc(Cl)c(Cl)cc2Cl)S(C)(=O)=O)cc1
    i | i | i | i
- C[C@@H]1CN([C@@H](C)CO)C(=O)c2cccc(NC(=O)c3ccncc3)c2O[C@H]1CN(C)S(=O)(=O)c1ccc(F)cc1
    i | i | i | i
- COc1ccc(S(=O)(=O)N(C)C[C@H]2Oc3c(NS(=O)(=O)c4cn(C)cn4)cccc3C(=O)N([C@@H](C)CO)C[C@H]2C)cc1
    i | i | i | i
- C[C@H](CO)N1C[C@H](C)[C@H](CN(C)Cc2ccc(C(=O)O)cc2)Oc2ccc(NC(=O)Nc3cccc4ccccc34)cc2CC1=O
    i | i | i | i
- CCOC(=O)c1c(NC(=O)CSc2ccccn2)sc(C)c1C
    i | i | i | i
- NC(=O)[C@H]1[C@@H]2C(=O)O[C@@H](c3ccccc3)[C@@H](c3ccccc3)N2[C@@H](c2ccc(O)cc2)[C@]12C(=O)Nc1ccc(C#CC3=CCCCC3)cc12
    / | i | i | i

Single records (already shown). Order of values: ID4 binder, p53 mut binder, c-Myc SMM, STAT3 binder
C[C@@H]1CCCCO[C@H](CN(C)Cc2ccccc2)[C@H](C)CN([C@@H](C)CO)C(=O)c2cc(N(C)C)ccc2O1 is entered as i, i, i, i
C[C@@H]1CCCCO[C@@H](CN(C)C)[C@H](C)CN([C@H](C)CO)C(=O)c2cc(NC(=O)Nc3ccccc3)ccc2O1 is entered as i, i, i, i
Cc1ccc(NC(=O)CN(c2cc(Cl)c(Cl)cc2Cl)S(C)(=O)=O)cc1 is entered as i, i, i, i

Later entries.
Compound	ID4 binder	p53 mut binder	c-Myc SMM	STAT3 binder
O=C(O)C1C2C=CC(C2)C1C(=O)Nc1ccc(C(=O)N2CCCCC2)cc1 (stereo not drawn)	i	i	i	i
CC1CC(=O)c2c(ccc3c2C(=O)c2cccc(O)c2C3O)C1 (stereo not drawn)	i	i	i	i
C[C@H]1CN([C@@H](C)CO)C(=O)Cc2cc(NC(=O)NC3CCCCC3)ccc2O[C@H]1CN(C)S(=O)(=O)c1ccccc1	i	i	i	i
C[C@H](CO)N1C[C@H](C)[C@H](CN(C)C(=O)c2cc(-c3ccccc3)on2)OCc2cn(nn2)CCCC1=O	i	i	i	i
C=CCNC(=O)[C@@H]1[C@H]2C(=O)O[C@H](c3ccccc3)[C@H](c3ccccc3)N2[C@H](c2ccccc2OCCO)[C@@]12C(=O)Nc1ccccc12	i	i	i	i
Cc1noc(C)c1NC(=O)Nc1cccc2c1O[C@@H](CN(C)C(=O)NC1CCCCC1)[C@@H](C)CN([C@H](C)CO)C2=O	i	i	i	i
NC(=O)NCC#Cc1ccc2c(c1)[C@]1(C(=O)N2)[C@H](c2ccccc2OCCO)N2[C@H](c3ccccc3)[C@H](c3ccccc3)OC(=O)[C@H]2[C@@H]1C(=O)O	i	i	i	i
NC(=O)[C@@H]1[C@H]2C(=O)O[C@H](c3ccccc3)[C@H](c3ccccc3)N2[C@H](c2ccc(O)cc2)[C@@]12C(=O)Nc1ccc(C#CCCO)cc12	/	i	i	i
COc1ccc(CN(C)C[C@H]2OCCCC[C@H](C)Oc3ccc(NC(=O)Nc4c(C)noc4C)cc3C(=O)N([C@@H](C)CO)C[C@H]2C)cc1	i	i	i	i
O=C(NCCN1CCNCC1)c1ccccn1	i	i	i	i
COc1cc(O)c(OC)c2c1C(=O)CC(c1ccccc1)O2 (stereo not drawn)	i	i	i	i
Cc1noc(C)c1S(=O)(=O)Nc1cccc2c1O[C@H](CN(C)C(=O)NC1CCCCC1)[C@H](C)CN([C@H](C)CO)C2=O	i	i	i	i
C=C(C(=O)O)C1CCC(CCC)OC1=O (stereo not drawn)	i	i	i	i

Screening data from PubChem BioAssay.
